Screens as filed in PubChem BioAssay.
RecA splice inh = inhibitors of M. tuberculosis RecA intein splicing. inhibition, %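 (about 9 µM by stock and volumes)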. cell-free RecA intein splicing, fluorescence. actives 0.75% (n = 290,000). AID 2221; in the data active means inhibition above about 30%; inconclusive means no clear call, values can overlap the other calls;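 further: 0% = vehicle wells and 100% = reference inhibitor control wells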
Target sequence (P9WHJ3 whole entry, looked up, canonical isoform): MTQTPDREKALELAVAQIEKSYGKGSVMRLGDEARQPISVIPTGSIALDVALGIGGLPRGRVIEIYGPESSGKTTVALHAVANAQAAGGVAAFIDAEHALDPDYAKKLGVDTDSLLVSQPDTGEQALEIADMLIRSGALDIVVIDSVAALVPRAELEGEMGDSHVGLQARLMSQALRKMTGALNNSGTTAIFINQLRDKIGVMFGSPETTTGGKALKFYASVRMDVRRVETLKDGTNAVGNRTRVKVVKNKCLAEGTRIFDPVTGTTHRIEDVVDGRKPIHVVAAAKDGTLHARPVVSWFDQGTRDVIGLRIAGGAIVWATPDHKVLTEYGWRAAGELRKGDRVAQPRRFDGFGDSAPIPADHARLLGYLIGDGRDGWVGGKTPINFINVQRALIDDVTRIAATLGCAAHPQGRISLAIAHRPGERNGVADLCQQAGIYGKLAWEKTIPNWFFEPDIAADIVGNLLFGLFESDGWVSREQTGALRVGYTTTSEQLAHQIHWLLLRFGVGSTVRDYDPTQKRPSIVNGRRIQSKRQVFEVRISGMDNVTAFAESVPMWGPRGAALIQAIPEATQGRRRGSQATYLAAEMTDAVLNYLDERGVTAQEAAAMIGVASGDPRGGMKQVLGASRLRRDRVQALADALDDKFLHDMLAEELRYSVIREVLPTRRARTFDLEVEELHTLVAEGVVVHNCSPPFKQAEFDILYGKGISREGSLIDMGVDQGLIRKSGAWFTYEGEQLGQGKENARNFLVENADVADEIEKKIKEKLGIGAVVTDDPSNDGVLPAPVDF
Mtb growth = M. tuberculosis H37Rv growth inhibitors, H37Rv strain (AID 1626); M. tuberculosis H37Rv growth inhibition; higher % means a stronger effect; actives 0.95% (n = 220,000); inhibition, % at 10 µM, or IC50 in µM where a hit was titrated;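 active means confirmed in a dose series; inconclusive means inhibition above 80% but not taken into the dose series; inactive means below 80% or under 30% at every dose of the series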;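 further: bacteria incubated seven days before Alamar blue readout; 0% = bacteria only wells and 100% = bacteria with antibiotic wells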
Arbovirus anti = blocks arbovirus infection. AID 1251. arbovirus infection cell-based antiviral screen. actives 0.37% (n = 200,000). inhibition, % at 10 µM;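 active means inhibition from about 30%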;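 further: bluetongue infection of BSR cells; cell survival read as ATP light after 72 h; 0% = infected wells without compound and 100% = uninfected wells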
YopH inh = blocks Yersinia enterocolitica YopH tyrosine phosphatase; actives 0.16% (n = 140,000); fluorescence Ex485/Em525; AID 898; inhibition, %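 (about 10 µM by stock and volumes)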;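 active means inhibition of 50% or more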;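 further: controls were vehicle for no effect and minimum signal wells for full effect; inactives centre near -20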
Mtb betalactam = beta-lactam sensitization of Mtb H37Rv; M. tuberculosis H37Rv growth with meropenem, percent inhibition; hits of this screen are not shown here; inhibition, % at 25 µM; actives 0.27% (n = 330,000); AID 434955;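 active means about 74% or more and at least 40 points above the plate without the antibiotic, then above 30% in a dose series; inconclusive means first-round hits that could not be retested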;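 further: growth measured after seven days incubation then overnight dye step; 0% = bacteria only wells and 100% = bacteria with antibiotic; twin plates without the antibiotic show which effects depend on it; some results filed as inactive read as strong as hits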
Arbovirus anti repeat = recorded beside Arbovirus anti, whose call it bears; inhibition, %; measured here: 10K subset replicate screen; many hits read low in the repeat;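 first of two repeat runs on a subset; 0% = infected and 100% = uninfected wells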
* hit, by the source's call. An excerpt; rates above refer to the full screens.

`CCOC(=O)C1CCN(C(=O)CS(=O)Cc2nc(-c3ccc(C)cc3)oc2C)CC1` (stereo unspecified) gave RecA splice inh 13, Mtb growth 41%, Arbovirus anti -2, YopH inh -18, Mtb betalactam -1 and Arbovirus anti repeat -1.
`COc1ccc(CNC(=S)Nc2cccc(Cl)c2)cc1` gave RecA splice inh 2.6 and Mtb betalactam 3.
For CCn1c(SCC(=O)N2c3ccccc3Sc3ccccc32)nc2c1c(=O)n(C)c(=O)n2C the results were RecA splice inh 4.1, Mtb growth -6% and Mtb betalactam 32.
O=C(CSc1ccc(-c2ccccc2)nn1)N1CCOCC1 was read as RecA splice inh 0.5, Mtb growth -4%, Arbovirus anti 3, YopH inh -23 and Mtb betalactam -4.
For O=C(COC(=O)CNC(=O)c1ccc2c(c1)OCO2)Nc1ncc(Cl)cc1Cl the results were RecA splice inh 2.2, Mtb growth 2%, Arbovirus anti -2 and Mtb betalactam -7.
COCCN(C(=S)Nc1ccccc1C)C(C)c1cccs1 (stereo unspecified) was read as RecA splice inh -0.5, Mtb growth -1%, Arbovirus anti 1, YopH inh -7 and Mtb betalactam 2.
Screening CC(CCc1ccccc1)NC(=O)C(=O)c1c[nH]c2ccccc12 (stereo unspecified) returned RecA splice inh 1.1 and Mtb betalactam 10.
S=C1Nc2cc(Cl)ccc2Sc2ccccc21 was read as RecA splice inh -2.9, Arbovirus anti 0, YopH inh -24 and Mtb betalactam 15.
Cc1ccc(CNC(=O)CCS(=O)(=O)c2ccc(C)cc2)cc1 was read as RecA splice inh 2.5, Mtb growth 2%, Arbovirus anti 3 and Mtb betalactam 13.
`O=C(CSc1nnc(-c2cccs2)o1)N1CCCc2ccccc21` gave RecA splice inh -2.7, Mtb growth 9%, Arbovirus anti 3, YopH inh -34 and Mtb betalactam 33.
For Cc1c(Cl)cnc(NC(=O)COC(=O)c2nn(C)c(=O)c3ccccc23)c1Cl the results were RecA splice inh 0.6, Mtb growth 1%, Arbovirus anti -1, YopH inh -20 and Mtb betalactam -8.
`CCOC(=O)c1ccc(NC(=O)c2cccc(S(=O)(=O)N3c4ccccc4CC3C)c2)s1` (stereo unspecified) gave RecA splice inh -2.6, Mtb growth 0%, Arbovirus anti -14, YopH inh -10 and Mtb betalactam 2.
`CCNS(=O)(=O)c1ccc(NC(=O)c2ccccc2SCCOC)cc1` gave RecA splice inh 0.9, Mtb growth 2%, Arbovirus anti 0 and Mtb betalactam -10.
`CCCCCCCCNC(=O)c1ccc(C)cc1` gave RecA splice inh 2.3, Mtb growth 3%, Arbovirus anti 7 and Mtb betalactam 2.
Screening O=C(Oc1cccc(NC(=O)c2ccccc2Cl)c1)c1ccc([N+](=O)[O-])cc1 returned RecA splice inh -1.0, Mtb growth 4%, Arbovirus anti -1, YopH inh 2 and Mtb betalactam 6.
Screening O=C(c1ccc(Cl)c([N+](=O)[O-])c1)N1CCCc2ccccc21 returned RecA splice inh 2.6 and Mtb betalactam -1.
CSc1ccccc1NC(=O)c1ccc(Cl)s1 was read as RecA splice inh -9.8, Mtb growth 51%, Arbovirus anti -9, YopH inh -11 and Mtb betalactam 97.
Screening O=c1c2cnn(-c3ccccc3)c2nc(-c2cccs2)n1-c1ccc(Br)cc1 returned RecA splice inh 0.1, Mtb growth 0%, Arbovirus anti -12, YopH inh -39 and Mtb betalactam -6.
CCCCCC(NC(=O)C1CCN(C(=O)[C@@H](NS(=O)(=O)c2ccc(C)cc2)C(C)C)CC1)C(=O)O (stereo partly specified) was read as RecA splice inh -0.7 and Mtb betalactam 0.
Screening CN1/C(=C\C(=O)COC(=O)CNC(=O)c2ccc3ccccc3c2)C(C)(C)c2ccccc21 returned RecA splice inh 4.4, Mtb growth 3%, Arbovirus anti 11, YopH inh -21 and Mtb betalactam 10.

Molecules listed so far that have an aryl thioether with sulfur outside any ring:
For CCn1c(SCC(=O)N2c3ccccc3Sc3ccccc32)nc2c1c(=O)n(C)c(=O)n2C the results were RecA splice inh 4.1, Mtb growth -6% and Mtb betalactam 32.
O=C(CSc1ccc(-c2ccccc2)nn1)N1CCOCC1 was read as RecA splice inh 0.5, Mtb growth -4%, Arbovirus anti 3, YopH inh -23 and Mtb betalactam -4.
`O=C(CSc1nnc(-c2cccs2)o1)N1CCCc2ccccc21` gave RecA splice inh -2.7, Mtb growth 9%, Arbovirus anti 3, YopH inh -34 and Mtb betalactam 33.
`CCNS(=O)(=O)c1ccc(NC(=O)c2ccccc2SCCOC)cc1` gave RecA splice inh 0.9, Mtb growth 2%, Arbovirus anti 0 and Mtb betalactam -10.
CSc1ccccc1NC(=O)c1ccc(Cl)s1 was read as RecA splice inh -9.8, Mtb growth 51%, Arbovirus anti -9, YopH inh -11 and Mtb betalactam 97.

(listing goes on)
Screening O=[N+]([O-])c1ccccc1S(=O)(=O)NCCC1=CCCCC1 returned RecA splice inh 0.7, Arbovirus anti 20, YopH inh -33 and Mtb betalactam 0.
Screening CC(C)NC(=O)COC(=O)C1CSC2(c3ccc(Br)cc3)CCC(=O)N12 (stereo unspecified) returned RecA splice inh -1.7, Mtb growth -11%, Arbovirus anti 2 and Mtb betalactam 2.
CC(=O)Nc1nnc(SCc2cccc(F)c2)s1 was read as RecA splice inh 5.7, Arbovirus anti -4, Mtb betalactam 6 and Arbovirus anti repeat -3.
`COc1ccc(NC(=O)CCC(=O)N2CCCC2)c([N+](=O)[O-])c1` gave RecA splice inh -0.9 and Mtb betalactam -3.
Screening COc1ccc(NC(=O)Nc2ccc3c(c2)N(C)C(=O)CS3)cc1OC returned Mtb growth 2%, Arbovirus anti -3, YopH inh -8, Mtb betalactam 7 and Arbovirus anti repeat 5.
For COc1ccc(/C=C2\CC/C(=C\c3ccc(OC)cc3OC)C2=O)c(OC)c1 the results were RecA splice inh -2.5, Mtb growth -6%, Arbovirus anti -6 and Mtb betalactam 56.
Cc1onc(-c2ccccc2Cl)c1C(=O)Nc1nnc(C(C)C)s1 was read as RecA splice inh -5.8, Mtb growth 8%, Arbovirus anti 4, YopH inh -19, Mtb betalactam -2 and Arbovirus anti repeat 4.
For CCOc1ccc(NS(=O)(=O)c2c(C)nc3sccn3c2=O)cc1 the results were RecA splice inh -1.1 and Mtb betalactam -3.
Screening Cc1cnc(C(=O)OCC(=O)Nc2oc(-c3ccccc3)c(-c3ccccc3)c2C#N)cn1 returned RecA splice inh 3.7, Mtb growth -14%, Arbovirus anti -15, YopH inh -26 and Mtb betalactam inconclusive.
For CCOc1ccc(-n2c(SCc3nc(-c4cccs4)no3)nnc2-c2ccncc2)cc1 the results were RecA splice inh 2.2, Mtb growth -5%, Arbovirus anti 0, YopH inh 37 and Mtb betalactam 0.
Screening O=C(NCC(c1cccnc1)N1CCN(c2ccc(F)cc2)CC1)c1ccccc1 (stereo unspecified) returned RecA splice inh -0.2, Mtb growth -13%, Arbovirus anti -3, YopH inh -25 and Mtb betalactam -13.
`C/C=C/C(=O)Nc1cccc(C2=NOC3(C2)C[C@@H](C(N)=O)N(C(=O)/C(C)=C/C)C3)c1` (stereo partly specified) gave RecA splice inh 0.7, Mtb growth -16% and Mtb betalactam -7.
CSc1nc2ccc(S(N)(=O)=O)cc2s1 was read as RecA splice inh 1.3, Mtb growth 1%, Arbovirus anti 3, YopH inh -10 and Mtb betalactam 5.
Cc1ccc(NC(=O)CSc2nnc(-c3ccccn3)n2C)cc1 was read as RecA splice inh -1.0, Mtb growth 4%, Arbovirus anti 1, YopH inh -12 and Mtb betalactam -3.
COc1ccc(C2=NN(C(=O)c3ccccc3)C(c3ccc(OC)c(OC)c3)C2)c(OC(C)=O)c1 (stereo unspecified) was read as RecA splice inh 14 and Mtb betalactam -1.
Screening O=C(CCNS(=O)(=O)c1ccc(Cl)cc1)NCc1ccccn1 returned RecA splice inh -0.8, Mtb growth -4%, Arbovirus anti 0, YopH inh -18 and Mtb betalactam -9.
Screening CC(C)NC(=S)N/N=C1\CCCCc2ccccc21 returned RecA splice inh 0.9, Mtb growth 12%, Arbovirus anti 12, YopH inh -15 and Mtb betalactam 94.
Screening COc1ccc(CNC(=O)COC(=O)CCOc2ccccc2)cc1 returned RecA splice inh -0.9, Mtb growth -3%, Arbovirus anti 0, YopH inh -7 and Mtb betalactam -9.
Cc1csc2c(=O)[nH]cnc12 was read as RecA splice inh 0.5, Mtb growth 2%, Arbovirus anti 1 and Mtb betalactam -5.
For O=C(CCN=C1NS(=O)(=O)c2ccccc21)OCc1ccccc1 the results were RecA splice inh 1.2 and Mtb betalactam -10.
CC(=O)NC(C)CCc1ccccc1 (stereo unspecified) was read as RecA splice inh 1.8, Mtb growth -12% and Mtb betalactam -9.
O=C(/C=C/c1ccco1)N(Cc1ccccc1F)C1CCS(=O)(=O)C1 (stereo unspecified) was read as RecA splice inh 2.6 and Mtb betalactam -9.
Screening Fc1ccccc1SCc1nnc(-c2ccccc2Br)o1 returned RecA splice inh 13, Mtb growth 8%, Arbovirus anti 5 and Mtb betalactam -1.
For O=C(CN1CCN(c2nc(-c3ccc(F)cc3)cs2)CC1)Nc1ccc2c(c1)OCO2 the results were RecA splice inh 1.6, Mtb growth 10%, Arbovirus anti -3, YopH inh -22 and Mtb betalactam 95.
CCOc1ccc(N(C(=O)c2ccc3c(c2)OCO3)C2C=CS(=O)(=O)C2)cc1 (stereo unspecified) was read as RecA splice inh -3.1 and Mtb betalactam -11.
`CCCCCCC(O)(c1ccc(OC)cc1)C(CN1CCOCC1)c1ccccc1` (stereo unspecified) gave RecA splice inh 19 and Mtb betalactam 22.
For O=C(Cc1ccccc1)Nc1nc(-c2ccc(F)c(F)c2)cs1 the results were RecA splice inh 0.3 and Mtb betalactam 7.
`NS(=O)(=O)c1cccc(NC(=O)c2cccnc2Oc2ccccc2)c1` gave RecA splice inh 1.6, Mtb growth -8% and Mtb betalactam -3.
For COc1ccc(NC(=O)c2nc[nH]c2C(=O)N[C@@H](C)C(=O)OC(C)(C)C)cc1 the results were RecA splice inh -3.2, Mtb growth 6% and Mtb betalactam 67.
For CCOc1ccccc1-c1cc(C(=O)Nc2ccc(C(=O)O)cc2)c2ccccc2n1 the results were RecA splice inh 2.2 and Mtb betalactam 9.
For COc1ccc(CN(C(=O)c2cnccn2)C(C(=O)NC(C)(C)C)c2cc(OC)c(OC)c(OC)c2)cc1 (stereo unspecified) the results were RecA splice inh 2.1, Mtb growth -2%, Arbovirus anti -6, YopH inh -7 and Mtb betalactam -1.
CN(C(=O)CSc1nnn(C)n1)c1ccccc1 was read as RecA splice inh -2.1 and Mtb betalactam -7.
Cn1c(N)c(C(=O)COC(=O)[C@H](Cc2ccccc2)N2C(=O)c3ccccc3C2=O)c(=O)n(C)c1=O was read as RecA splice inh 1.6, Mtb growth 2%, Arbovirus anti 3, YopH inh -21 and Mtb betalactam 9.
For Cn1c(=O)oc2cc(S(=O)(=O)NCCC(=O)NCc3ccccc3Cl)ccc21 the results were RecA splice inh -0.5 and Mtb betalactam -2.
COc1ccc2c(c1)CC/C(=C/c1ccccn1)C2=O was read as RecA splice inh 11 and Mtb betalactam 39.
For Cc1ccc(C)c(S(=O)(=O)NC(CCC(N)=O)C(=O)O)c1 (stereo unspecified) the results were RecA splice inh -0.2, Mtb growth 2%, YopH inh -18 and Mtb betalactam -2.
For CCCC1=Nc2cc(C(=O)NCCN3CCOCC3)ccc2Sc2ccccc21 the results were RecA splice inh -1.7 and Mtb betalactam -1.
For c1ccc(Cc2noc(CN3CCCC(CN4CCOCC4)C3)n2)cc1 (stereo unspecified) the results were RecA splice inh 1.1, Mtb growth 2%, Arbovirus anti -1 and Mtb betalactam 4.
CC1CCCN(C(=O)CN(C)S(=O)(=O)c2cccc3nsnc23)C1 (stereo unspecified) was read as RecA splice inh 2.0 and Mtb betalactam -1.
`CCCCOc1ccccc1C(=O)NCCCC(=O)O` gave RecA splice inh -4.5, Mtb growth -4%, Arbovirus anti 11, YopH inh -23 and Mtb betalactam -4.
Screening O=C(CC1CCCCC1)NC1CCCC1 returned RecA splice inh -2.1, Mtb growth 3%, Arbovirus anti 7, YopH inh -5 and Mtb betalactam 3.
CC1CC(C)CN(CCC(=O)Nc2ccc(Br)cc2)C1 (stereo unspecified) was read as RecA splice inh 1.9 and Mtb betalactam 0.
`O=c1nc2s/c(=C\c3ccco3)c(=O)n2nc1Cc1ccc(F)cc1` gave RecA splice inh -4.0, Mtb growth -2%, Arbovirus anti 18, YopH inh -44 and Mtb betalactam 20.
Screening CCOc1ccc(C(C)=O)cc1COC(=O)CN1C(=O)NC2(CCCC2)C1=O returned RecA splice inh -1.4 and Mtb betalactam -9.
Screening CN(CCN1CCc2ccccc2C1)Cc1nc(Cc2ccccc2F)no1 returned Mtb growth 2% and Arbovirus anti -1.
